Screening results (PubChem)
Vaccinia mCherry: inhibitors of vaccinia virus infection (mCherry reporter signal); Vaccinia virus mCherry reporter infection, fluorescence; about a quarter of the inactives have no number; Potency, µM (series often up to 36.5 µM), for inactives: at the highest dose activity change, negative = inhibition, usual class: inhibitors; 310,000 tested, 0.63% active; active = well fitted inhibition curve with a large enough effect; inconclusive = small, poorly fitted or top-dose-only effect; inactive = no such curve, though single readings can be large or run the other way; tested in A549 cells; also: nearly all actives have a fitted effect of over 35% in size; inactives centre near -10
VACV Venus inh: vaccinia inhibition (Venus reporter) | Vaccinia virus Venus reporter expression, fluorescence | Potency, µM (top dose mostly 36.5 µM), for the others: top-dose activity change, negative = inhibition, actives largely listed as inhibitors | 330,000 tested, 0.46% active; active means well fitted inhibition curve with a large enough effect; inconclusive means small, poorly fitted or top-dose-only effect; inactive means no such curve, though single readings can be large or run the other way; tested in A549 cells; also: nearly all actives have a fitted effect of over 30% in size; inactives centre near -10
The depositor's hits bear a star; i = inactive; ? = inconclusive; nt = no result given; [ ] = another dose, or the depositor's remark. % is scaled to controls: 0 for no effect and ±100 for the full control effect; potency is read from the fitted curve at half-maximal effect.

The first five compounds as a preview:
Under each structure – Vaccinia mCherry | VACV Venus inh
1) COc1ccc(C)cc1NC(=O)COC(=O)c1c(C)noc1C
    i | -4.7%
2) O=C(NCc1ccc2c(c1)OCO2)C1CC(=O)N(C2CCCCCCC2)C1 (centres undefined)
    i | -9.7%
3) COc1ccc([N+](=O)[O-])cc1NC(=O)CN(C)S(=O)(=O)c1ccccc1
    -5.0% | -7.6%
4) O=C(Nc1cccc(NC(=O)c2c(F)cccc2F)n1)c1c(F)cccc1F
    -14.4% | -9.4%
5) COc1ccc(-c2csc3ncnc(Cl)c23)cc1
    -12.5% | -1.1%

The list itself, repeating the preview:
Under each structure – Vaccinia mCherry | VACV Venus inh
1) COc1ccc(C)cc1NC(=O)COC(=O)c1c(C)noc1C
    i | -4.7%
2) O=C(NCc1ccc2c(c1)OCO2)C1CC(=O)N(C2CCCCCCC2)C1 (centres undefined)
    i | -9.7%
3) COc1ccc([N+](=O)[O-])cc1NC(=O)CN(C)S(=O)(=O)c1ccccc1
    -5.0% | -7.6%
4) O=C(Nc1cccc(NC(=O)c2c(F)cccc2F)n1)c1c(F)cccc1F
    -14.4% | -9.4%
5) COc1ccc(-c2csc3ncnc(Cl)c23)cc1
    -12.5% | -1.1%
6) NS(=O)(=O)c1ccc(NC(=O)COC(=O)c2cc3ccccc3cc2O)cc1
    -15.3%[7.34 µM] | -4.6%[7.34 µM]
7) Cc1cc(C)nc(-n2nc(C)c3c2N(Cc2ccccc2)C(=O)CC3c2ccc(Cl)cc2)n1 (centres undefined)
    -10.0% | -19.5%
8) COc1cc(OC)c(C(=O)OC(C)C(=O)NCc2ccc3c(c2)OCO3)cc1OC (centres undefined)
    i | 0.0%
9) CCOCCn1c(SCc2cccc(C)c2)nc2c1c(=O)[nH]c(=O)n2C
    -10.9% | -22.6%
10) CCc1ccccc1NC1c2ccccc2C(=O)N1Cc1ccco1 (centres undefined)
    28.3% | 2.3%
11) O=[N+]([O-])c1ccc(NC(=S)NCCc2ccc(Cl)cc2)cc1
    ? | 11.2µM*
12) C=CS(=O)(=O)N(Cc1ccc(Cl)c(Cl)c1)C[C@@H](O)CO
    0.282µM* | 0.0501µM*
13) Cc1ccc(C)c(S(=O)(=O)N2CCN(C(=O)Cc3sc(C)nc3-c3ccc(F)cc3)CC2)c1
    -2.5% | -27.8%
14) CC(C)c1ccc(Nc2c(-c3ccsc3)nc3ccc(Cl)cn23)cc1
    -7.2% | -9.6%
15) C[C@H](CO)N1C[C@H](C)[C@@H](CN(C)S(=O)(=O)c2ccccc2)Oc2c(NC(=O)c3ccncc3)cccc2C1=O
    -12.9% | -6.7%
16) O=C(NNC(=O)c1ccccc1F)c1cccc(-n2cccc2)c1
    -14.8% | -4.2%
17) Cc1ccc(OCC(=O)Nc2ccccc2C(N)=O)cc1
    -0.9% | -10.6%
18) O=C1[C@H]2[C@@H](c3ccc(C(F)(F)F)cc3)N[C@]3(CCCN(Cc4ccccc4)C3=O)[C@H]2C(=O)N1Cc1ccccc1
    -22.1% | ?
19) COCCCNCCCCOc1ccccc1-c1ccccc1
    -18.9% | -20.1%
20) CCOC(=O)C1=C(C)NC(=O)NC1c1ccc(C)o1 (centres undefined)
    i | -18.4%
21) Cc1ccc(S(=O)(=O)N2CC(=O)Nc3ccccc32)cc1C
    i | -12.7%
22) COc1cccc(NC(=O)CCC2CCN(C(=O)Cc3cccc(F)c3)CC2)c1
    -18.0% | -8.0%
23) Cc1c(C(=O)N2CCOCC2)sc(NC(=O)Cc2ccccc2)c1C#N
    -9.4% | 4.3%
24) Cn1c(=O)cc(SCC(=O)N2CCN(c3ccccc3)CC2)c2ccccc21
    -2.0% | -2.7%
25) O=C(NCc1ccco1)C1CCN(c2nc3ccccc3n2Cc2ccc(F)cc2)CC1
    -24.7% | -12.5%
26) Cc1ccc(NC(=O)Cn2c(=O)c(C)nc3ccccc32)cc1
    -3.2% | 3.1%
27) C[C@@H]1CN([C@@H](C)CO)C(=O)c2cc(Br)cnc2O[C@H]1CN(C)C(=O)c1ccc2c(c1)OCO2
    i | -10.9%
28) CC(=O)Nc1nonc1-c1nc2ccccc2n1CCC(C)C
    ? | -24.2%
29) CCOc1ncccc1C(=O)OCC(=O)NCc1ccccc1
    -25.4% | 16.0%
30) CCO/C(C)=N/Oc1cnc2ccccc2c1
    9.1% | 3.6%
31) CC(C)Nc1nc(Cl)nc(NN(C)c2nc(N(C)C)nc(N(C)C)n2)n1
    -1.8% | -14.9%
32) CN1C[C@H](C(=O)NC2(C)OC3(O)[C@@H]4CCCN4C(=O)[C@H](Cc4ccccc4)N3C2=O)CC2c3cccc4[nH]cc(c34)C[C@H]21 (some centres undefined)
    -5.9% | -26.9%
33) Cc1ccc(S(=O)(=O)CC(=O)Nc2nnc(C(C)(C)C)s2)cc1
    7.3% | 0.3%
34) COc1cc(OC)cc(C(=O)N[C@H](C(=O)OCC(=O)Nc2ccc(C(C)C)cc2)C(C)C)c1
    i | 0.5%
35) COC(=O)c1cccc(NC(=O)Cc2nc(-c3ccccc3)sc2-c2ccc(C)cc2)c1
    -3.1% | -23.6%
36) COc1ccccc1N1CCN(C(=O)Cc2c(C(=O)O)c(C)cn2C)CC1
    -4.0% | -4.4%
37) Cc1ccsc1/C=N/NC(=O)C(=O)NCC(C)C
    -22.3% | -12.8%
38) Cc1cc2cc(CNC(=O)c3ccc(S(=O)(=O)N(C)C)cc3)ccc2n1C
    31.8%[activator] | 65.3%[activator]
39) CCC1(c2ccccc2)NC(=O)N(CC(=O)NC2(C#N)CCCCC2)C1=O (centres undefined)
    i | -20.6%
40) Cc1cc(Cl)ccc1OCCCC(=O)N1CCCc2ccccc21
    -13.3% | -20.1%
41) Cc1ccccc1NC(=O)c1cc2sccc2n1Cc1ccc(F)cc1
    -5.1% | 3.1%
42) CC(=O)N1CCOc2ccc(S(=O)(=O)NCc3ccc(Cl)cc3)cc21
    -28.3% | -17.9%
43) CCc1ccccc1NC(=O)CSc1ncc2c(n1)-c1cc(Cl)ccc1N(Cc1ccccc1)S2(=O)=O
    -9.6% | -1.4%
44) Cc1nc(NC(=O)C(C)(C)C)sc1C(=O)Cn1cc(CCCC#N)nn1
    -5.0% | -8.6%
45) CCC(C)NC(=O)C1CCN(S(=O)(=O)c2cccc3nonc23)CC1 (centres undefined)
    -8.7% | 0.1%
46) CCN1CCc2nc3sc(C(=O)Nc4cccc(Cl)c4C)c(N)c3cc2C1
    ? | -25.8%
47) COc1ccc2[nH]c3c(c2c1)CCN(C(=O)CCC1CCCC1)C3c1ccc(F)cc1 (centres undefined)
    ? | -3.5%
48) CC(=O)Nc1c(O)nc(SCc2ccccc2C#N)[nH]c1=O
    -11.4% | -8.3%
49) CCCn1c(C)cc(C(=O)COc2ccc(-c3nnco3)cc2)c1C
    -10.2% | -9.2%
50) O=C(C1CCCN(S(=O)(=O)Cc2ccccc2)C1)N1CCCCC1 (centres undefined)
    nt | ?
51) Cc1nnc2c3ccccc3c(-c3ccc(O)cc3)nn12
    nt | -10.8%
52) O=C(NC1CCN(C(=S)Nc2ccc(Cl)cc2)CC1)c1ccco1
    -12.0% | -8.4%
53) CC(=O)Nc1ccc(S(=O)(=O)N/N=C/c2ccc(C)s2)cc1
    -7.5% | -17.1%
54) O=C(COC(=O)/C=C/c1ccco1)NCCc1ccccc1
    i | -8.5%
55) C/C(=C\C(=O)O)C(=O)Nc1nccs1
    nt | 10.0%
56) CCOc1ccc(OCC)c(NS(=O)(=O)c2cc(-c3cc(C)no3)ccc2C)c1
    -5.9% | -4.8%
57) CC1(C)COC(c2ccc(F)c([N+](=O)[O-])c2)=N1
    -6.1% | -24.9%
58) OC(c1ccc(F)cc1)c1nc(-c2cc3ccccc3o2)cs1 (centres undefined)
    i | -17.6%
59) NC(Cc1cccc2nsnc12)C(=O)O (centres undefined)
    -9.4% | -6.0%
60) Cc1ccc([C@@H]2[C@@H]3C(=O)N(C)C(=O)[C@@H]3[C@]3(C)C(=O)N(Cc4ccccn4)CC(=O)N23)o1
    i | -8.2%

Continued.
Under each structure – Vaccinia mCherry | VACV Venus inh
61) COC(=O)c1ccc(NC(=O)c2cc3cc4ccc(OC)c(Cl)c4nc3s2)cc1
    0.8% | -1.0%
62) CN(C)c1ccc(CN(C(=O)c2cccs2)C2CCS(=O)(=O)C2)cc1 (centres undefined)
    -10.6% | -21.4%
63) Cc1cc(C)n(-c2ncnc3sc4c(c23)CC(C)CC4)n1 (centres undefined)
    -26.3% | -5.2%
64) O=C(NC(=S)Nc1cccc(C(F)(F)F)c1)c1ccc2nonc2c1
    -16.3% | -17.0%
65) CN1CCN(c2ccc(NC(=O)N3CCc4ccccc43)cc2)CC1
    -30.0% | -20.0%
66) CCC(C)(C)NC(=O)C1c2ccccc2Oc2ccccc21
    9.6% | 1.9%
67) CC(C)CS(=O)(=O)c1oc(-c2ccc(F)cc2)nc1S(=O)(=O)c1ccccc1
    -21.2%[7.34 µM] | -12.2%[7.34 µM]
68) O=c1n(Cc2ccc(Cl)cc2)c2sc3c(c2c2ncnn12)CCCC3
    nt | -15.1%
69) COC(=O)CC1C(C)(C)C(=O)C2CC3C4=CC(=O)OC(c5ccoc5)[C@]4(C)CCC3[C@@]1(C)C2=O (some centres undefined)
    -7.1% | -4.5%
70) CCCCOc1ccc(Br)cc1/C(C)=N/NC1=NCCN1
    nt | 6.31µM*
71) O=C(NC(c1ccc(Cl)cc1)c1ccsc1)C1CCN(Cc2ccc(Oc3ccccc3)cc2)CC1 (centres undefined)
    11.6% | -17.5%
72) O=S(=O)(c1ccc2nc(Cc3cccc(C(F)(F)F)c3)[nH]c2c1)N1CCOCC1
    -19.1% | -13.8%
73) O=C(Nc1cc(S(=O)(=O)N2CCOCC2)ccc1N1CCOCC1)c1cnccn1
    -7.9% | -4.0%
74) COc1ccc(NC(=O)COC(=O)c2c3c(nc4ccccc24)CCCC3)cc1
    ? | -24.0%
75) Cc1cccc(NC(=S)N2CCC(N(C)CC3CCCO3)CC2)c1 (centres undefined)
    i | -12.3%
76) CCOC(=O)c1c(NC(=O)COC(=O)Cn2cnc3c2c(=O)n(C)c(=O)n3C)sc(C)c1CC
    -12.7% | -12.5%
77) CCOC(=O)c1scc(-c2ccccc2)c1S(=O)(=O)Nc1ccccc1F
    -8.3% | 2.4%
78) Cc1ccc(NC(=O)CNC(=O)c2ccc3c(c2)OCO3)nc1
    i | -3.9%
79) COc1ccc(OC)c(NC(=O)C2(C)CCN2Cc2ccc(SC)cc2)c1 (centres undefined)
    i | -6.6%
80) COC(=O)[C@]12CCCCC=C1N(CCc1ccc(OC)c(OC)c1)C(=O)[C@H](CC(=O)NCc1cccc(C(F)(F)F)c1)C2
    -24.5% | ?

Shown as labelled records: part of the list above.
70) CCCCOc1ccc(Br)cc1/C(C)=N/NC1=NCCN1
  Vaccinia mCherry: nt
  VACV Venus inh: 6.31µM*

68) O=c1n(Cc2ccc(Cl)cc2)c2sc3c(c2c2ncnn12)CCCC3
  Vaccinia mCherry: nt
  VACV Venus inh: -15.1%

Next section:
Under each structure – Vaccinia mCherry | VACV Venus inh
81) CCC1CCCCN1CCCNC(=O)c1ccc2c(c1)c(C)c(C)n2C (centres undefined)
    -13.8% | -18.1%
82) COc1ccc(OC)c(C(c2nnnn2Cc2ccccc2)N2CCN(C)CC2)c1 (centres undefined)
    nt | -19.8%
83) CCOC(=O)CC(NC(=O)c1cc2cc(OC)ccc2oc1=O)c1ccc(OC)cc1 (centres undefined)
    -4.5% | -8.1%
84) O=C(O)c1cccc([N+](=O)[O-])c1C(=O)Nc1nc2ccccc2s1
    -14.0% | 1.3%
85) COC(=O)c1ccc(/C=N/n2cnnc2)cc1
    i | -5.4%
86) CCOP(=O)(Oc1ccccc1)c1c([N+](=O)[O-])cc(C(F)(F)F)cc1[N+](=O)[O-] (centres undefined)
    i | -6.5%
87) Cc1cccc(C(=O)OCC(=O)N2CCN(C(=O)c3ccco3)CC2)c1O
    -7.7% | -5.9%
88) Cc1ccc(C)c(CN2CCC(CNC(=O)C(CC(C)C)N3Cc4ccccc4C3=O)CC2)c1 (centres undefined)
    -22.2% | -18.5%
89) O=C(c1ccco1)N1CCC(c2ccccc2)C1 (centres undefined)
    -19.3% | -12.2%
90) CCCCCCCCN1C(=O)[C@H](CC(=O)NCc2cccc3ccccc23)C[C@@]2(C(=O)OCC)CCCC=C12
    10.2% | -11.7%
91) CCOc1ccccc1C(=O)N1c2ccccc2Sc2ccccc21
    nt | -33.2%
92) COc1ccc(CNC(=O)Cn2c(=O)n3nc(-c4ccc(OC)cc4)nc3c3ccccc32)cc1
    -0.9% | -3.2%
93) CC(C)=CCN1CCN(Cc2ccc(Oc3ncccn3)cc2)CC1CCO (centres undefined)
    i | -1.0%
94) Cc1cccc(C(=O)Nc2c(-c3ccccc3)nc3cc(C)ccn23)c1
    -13.9% | -6.8%
95) Cc1c(Cl)cccc1NC(=O)CNc1ccccc1F
    -14.3% | -15.1%
96) Cc1ccc2c(CC(=O)NCc3ccco3)coc2c1C
    nt | ?
97) CCc1ccc(OC(=O)CN2C(=O)c3ccccc3C2=O)cc1
    -7.5% | -3.0%
98) COC(=O)\C(C(C)=O)=C(/C=C/C=C/N(C)C)N(C)C
    -5.7% | -0.2%
99) Cc1ccc(Nc2nc(CSc3nnc(-c4cccs4)o3)cs2)cc1
    nt | -16.2%
100) Cc1cc(-c2ccccc2)c(C#N)c(N)n1
    nt | -6.4%
101) N/C(=N\c1nc2ccccc2o1)NC(=O)c1ccccc1Br
    i | -11.5%
102) COc1ccc(OC)c(/C=N\Nc2nccs2)c1
    ? | 7.6%
